# Source: PubChem BioAssay (Fisher Drug Discovery Resource Center)
# NPYLR7 ag: agonists of mosquito NPYLR7 receptor, primary screen, cell-based, Aedes aegypti, calcium fluorescence, mosquito biting behavior. 0.15% of 270,000 active. activation, % at 10 µM. HEK293T NPYLR7/Galpha15, GCaMP6s calcium fluorescence. Aedes aegypti neuropeptide Y-like receptor 7 (NPYLR7); in the data active means activation above about 40%;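 further: 0% = vehicle and 100% = reference agonist at the receptor; some compounds past the cut are filed as inactive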
# NPYLR7 ag max-min: further read-out of NPYLR7 ag, marked with its call; activation, %; measured here: Max-Min RFU normalised activation; some inactives read as strong as hits;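 span of the calcium signal over five minutes; 0% = vehicle and 100% = native peptide agonist; compound fluorescence can raise it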
# Active calls of the source: *; & = joins results of further samples.
smiles	NPYLR7 ag	NPYLR7 ag max-min
Cc1cccc(CN(CCc2c[nH]c3ccccc23)Cc2nc(C(=O)NCCN(C)C)co2)c1	1	6
Cn1cc(Br)cc1C(=O)Nc1ccc2nc[nH]c(=O)c2c1	9	5
CCc1cccc2c(C(CC(=O)O)c3cccc(OC)c3)c[nH]c12 (stereo not given)	-1	1
CO[C@H]1[C@H](NC(=O)C(C)C)c2ccccc2C12CCN(C(=O)COc1ccc(Cl)cc1)CC2	4	0
c1ccc(COCc2nc3ccccc3n2Cc2ccccc2)cc1	2	-2
O=C(C1CC1)N(CCN1CCOCC1)Cc1nccn1Cc1cccc(Cl)c1	8	10
CN(C)C(=O)CSc1nc(-c2cccs2)c(-c2cccs2)[nH]1	1	4
CC1CNC(=O)CCN1C(=O)c1ccccc1-c1nccn1C (stereo not given)	-3	-6
CCCS(=O)(=O)Nc1ccc(N(C)C)c(CN(Cc2ccccc2)C(=O)c2ccc(OC)cc2)c1	2	11
CCN1CC(NC2CCN(c3ccc(OC)cc3)CC2)CC1=O (stereo not given)	5	3
CCOC(=O)CC1=NN(c2ccccc2)C(=O)/C1=C/C=C/c1ccccc1OC	1	1
CCCCN(CC)C(=O)CC1Sc2ccc(Cl)cc2NC1=O (stereo not given)	6	4
COc1ccc(N2CCN(C(=O)c3cn(C)cc4c(=O)n(-c5ccccc5)nc3-4)CC2)cc1	4	3
Cc1[nH]ncc1S(=O)(=O)NCC(C)Oc1ccccc1 (stereo not given)	3	4
Cc1nc(NCCNC(=O)Nc2ccccc2)cc(-n2cccn2)n1	-6	-11
CC(CC(F)(F)F)NCc1ccccc1-n1ccnc1 (stereo not given)	1	-1
O=C(C1CCCN(c2nc(Cc3ccc(F)cc3)ns2)C1)N1CCN(C/C=C/c2ccccc2)CC1 (stereo not given)	-9	-3
COC(=O)c1ccc(NC(=O)CN2CCC(Cn3c(C)nc4ccccc43)CC2)cc1	0	-3
CCOC(=O)c1[nH]c(C)c(C(=O)N2[C@H]3CCNC[C@@H]2CC3)c1C	-6	-11
CCOC(=O)CNC(=O)CSc1nc2c(c(=O)n1-c1ccc(OC)c(OC)c1)SCC2	-4	-8
COc1cccc(-c2cc(-c3ccc(C(=O)NCCCN4CCCC4=O)cc3)[nH]n2)c1	-2	-10
CCC(=O)N1CCC1(C)C(=O)Nc1cccc(Oc2ccccc2)c1 (stereo not given)	-4	-4
CC(=O)N1CCn2nc(C(=O)N(Cc3ccc4[nH]ccc4c3)C3CC3)cc2C1	4	5
Cc1ccc(C)c(-n2cc(CN(C)CCn3ccnc3)c(-c3ccccc3)n2)c1	14	4
CC1CC(c2ccccc2F)N(C(=O)[C@H]2CCC(=O)N2)C1 (stereo not given in full)	-10	-9

# Part of the list above in order of molecular weight, high to low:
smiles	NPYLR7 ag	NPYLR7 ag max-min
CCCS(=O)(=O)Nc1ccc(N(C)C)c(CN(Cc2ccccc2)C(=O)c2ccc(OC)cc2)c1	2	11
Cc1cccc(CN(CCc2c[nH]c3ccccc23)Cc2nc(C(=O)NCCN(C)C)co2)c1	1	6
COc1ccc(N2CCN(C(=O)c3cn(C)cc4c(=O)n(-c5ccccc5)nc3-4)CC2)cc1	4	3
O=C(C1CC1)N(CCN1CCOCC1)Cc1nccn1Cc1cccc(Cl)c1	8	10
c1ccc(COCc2nc3ccccc3n2Cc2ccccc2)cc1	2	-2
Cc1[nH]ncc1S(=O)(=O)NCC(C)Oc1ccccc1 (stereo not given)	3	4

# Further records
smiles	NPYLR7 ag	NPYLR7 ag max-min
Cc1ccc(S(C)(=O)=O)cc1C(=O)Nc1nncs1	20	18
CC(=O)C(C)OC(=O)CN1C(=O)NC2(CCCCC2C)C1=O (stereo not given)	13	15
O=C1NC(=S)SC1=Cc1ccccc1[N+](=O)[O-]	1	-6
O=C(c1ccc(Cl)c(Cl)c1)N1CCN(c2nccc(-c3cccc(C(F)(F)F)c3)n2)CC1	25	30
OCCC1CN(Cc2ccsc2)CCN1Cc1ccc(F)c(F)c1 (stereo not given)	4	0
O=S(=O)(NCCCN1CCOCC1)c1ccc(Br)cc1	6	1
C=CCn1c(Cl)c(/C=N\NC(=O)c2cccnc2)sc1=O	5	3
CCN(CC)[P+](N)(c1nc2ccccc2n1CC)N(CC)CC	-1	-3
CCCc1cc(=O)[nH]c(SCCOc2ccc(OCC)cc2)n1	3	2
O=C(Nc1ccc(F)cc1)C(=O)N1CC[C@H]2CC[C@@H](C1)N2	18	9
CCN(Cc1nc2cc(Cl)ccc2c(=O)[nH]1)C(=O)C1CC(=O)N(c2ccc3c(c2)OCO3)C1 (stereo not given)	7	6
CN(C)CCN(C(=O)C1=COCCO1)c1nc2c(F)cccc2s1	-7	-10
c1ccc(CCc2nc(-c3cnc(CN4CCCC4)s3)n[nH]2)cc1	6	-9
O=C(c1ccc(Cl)cc1)N1CCN(C(c2ccccc2)c2ccc(Br)cc2)CC1 (stereo not given)	-3	3
CCCSC1=NC(C)=C(C(C)=O)C(c2cccc([N+](=O)[O-])c2)C1C#N (stereo not given)	-2	-4
Brc1cccc(-c2cnc(CSc3ncn[nH]3)o2)c1	-1	-4
NC(=O)C1CCN(C(c2cccc(F)c2)C2Sc3ncnn3C2=O)CC1 (stereo not given)	3	3
Cc1nc(Nc2ccc(NC(=O)Nc3cccc(C)c3C)cc2)cc(-n2ccnc2)n1	-9	-17
Cn1ncc(Oc2cccc(C(F)(F)F)c2)c(Nc2cccc(C(=O)NCc3cccnc3)c2)c1=O	1	4
CCCNc1nc(SCC)nc2c1cnn2CCNC(=O)c1ccc(F)cc1F	2	-1
Cn1c(=O)c2c(nc3n2CC(c2ccc(F)cc2)=NN3CC=Cc2ccccc2)n(C)c1=O	7	8
Cc1ccc(NC(=O)C2(C)CCN(C)C2)cc1C (stereo not given)	1	-1
COc1ccc(NC(=O)C2CCCCC2C(=O)N2CCc3c([nH]c4ccccc34)C2)cn1 (stereo not given)	-6	-14
CCCc1cc(CNC(=O)c2ccc(N(C)C3CCOC3)nc2)on1 (stereo not given)	-5	-6
Cc1ccc(/C=C/C(=O)N(C)S(=O)(=O)c2c(C)noc2C)c(C)c1	7	7
Cc1ccc2c(C)c(C(=O)N3CCCC3Cn3cccn3)oc2c1 (stereo not given)	9	5
COc1cccc(C(CN2CCN(S(=O)(=O)Cc3ccccc3)CC2)OCc2cccc(Cl)c2)c1 (stereo not given)	25	13
O=[N+]([O-])c1cc(/C=N\Nc2cc(N3CCCCCC3)nc(N3CCCCCC3)n2)cc2c1OCO2	-13	-14
O=C(CN1CCCN(S(=O)(=O)c2ccc(F)cc2)CC1)NCc1ccccc1	1	7
O=C(NC1CCN(c2ccccc2C(=O)N2CCN(C3CCCCCC3)CC2)CC1)c1cccc(Br)c1	26	36
O=C(C(=O)N1CCCN2CCCC2C1)c1ccco1 (stereo not given)	1	-1
O=C(NCC12CC3CC(CC(C3)C1)C2)c1c(F)cccc1Cl	0	0
COCCN(Cc1nc2ccccc2c(=O)[nH]1)C(=O)c1ccc(NC(C)=O)s1	-2	-3
CCCCCCNC(=O)/C=C/C(=O)O	-5	-6
Cc1ccc(S(=O)(=O)N2CCN(C(=O)CC(C)C)CC2)c(C)c1	19	7
COc1ccccc1-c1nc2cc(C)ccn2c1NC(=O)C1CC1	-4	3
Cc1ccc(CN2CCN(C(=O)CCC3(Cc4ccc(F)cc4)CCC(=O)N3)CC2=O)cc1 (stereo not given)	3	-1
CC(=O)N1CCC(C(=O)Nc2ccc(Cl)c(S(=O)(=O)N3CCCCC3)c2)CC1	6	0
CCCn1cc(CNC(=O)c2ccc(Cl)cn2)cn1	-2	0
CNC(=S)Nc1ccc2[nH]c(=O)[nH]c2c1	6	5
COc1ccccc1CNc1nc2c(-c3cccc(C(F)(F)F)c3)nnn2c2ccccc12	-5	-11
CCC(C(=O)Nc1cc(-c2ccccc2)nn1-c1cccc(F)c1)c1ccccc1 (stereo not given)	18	11
O=C(O)c1cc(N2C(=O)c3cccc4c([N+](=O)[O-])ccc(c34)C2=O)ccc1O	-8	-14
CCSc1nc(CC(=O)NC(C)Cn2nc(C)cc2C)cs1 (stereo not given)	4	1
CCN(CC)S(=O)(=O)c1ccc(N(C)C)c(NS(=O)(=O)c2cc(C)ccc2C)c1	0	15
O=S(=O)(c1ccc(N(C(F)F)S(=O)(=O)c2ccc(Cl)cc2)cc1)N1CCOCC1	5	5
O=C(c1csc(CSc2nnc(Cc3ccccc3)n2-c2ccccc2)n1)N1CCN(c2ccc([N+](=O)[O-])cc2)CC1	7	24
CNC(=O)c1c(NC(=O)C(C)n2cncn2)sc2c1CCCC2 (stereo not given)	-3	-3
O=C(c1ccco1)N1CCCN(Cc2nc(-c3cccc(Cl)c3)no2)CC1	10	-5
CCCn1c(=O)c2c(nc3n2CCN3c2ccc(CC)cc2)n(C)c1=O	19	7

# The list goes on:
smiles	NPYLR7 ag	NPYLR7 ag max-min
CCN(CC)C(=O)Oc1ccc2c(ccn2Cc2cc(C(F)(F)F)ccc2Cl)c1-c1ccc(C#N)cc1	12	9
Cc1nc(-n2ccc3c(cnc4c(-c5ccc(Cl)cc5)c(C)nn43)c2=O)n[nH]1	3	5
CCN1CCN(C(C)CNc2nc3ccccc3s2)CC1 (stereo not given)	0&5	0&3
COCCOC(=O)C1=C(C)NC(=S)NC1c1ccccc1Cl (stereo not given)	1	3
O=C(NCCSc1ccccc1)c1ccc(F)cc1	14	13
COC(=O)c1sc(NC(=O)CSc2ccc(Cl)cc2)c(C(=O)OC)c1C	-5	-11
COCCNC(=O)C(NC(=O)C1CCCC1)C1CCN(C(=O)c2ccco2)CC1 (stereo not given)	4	4
Cc1ccc(NC(=O)C(C)S(=O)(=O)Cc2cccc(Br)c2)c(O)c1 (stereo not given)	5	2
COc1cccc(C(=O)NC(C)C2c3cc(OC)c(OC)cc3CCN2Cc2ccc(F)cc2)c1 (stereo not given)	0	4
CCc1ccc(N2C(=O)CSC2c2cccc(NC(=O)c3ccc(Cl)c([N+](=O)[O-])c3)c2)cc1 (stereo not given)	-1	0
CCN(CC)CCCC(C)NC(=O)c1c(C)noc1-c1ccc(OC)cc1 (stereo not given)	-3	3
O=C(O)c1ccc(OS(=O)(=O)c2ccc(Cl)c(Cl)c2)cc1	6	6
CCCn1c(C(=O)Nc2ccc(C(C)C)cc2)cc2c(=O)n(C)c(=O)n(C)c21	-1	-2
COc1ccc(C2=NN(c3nc(-c4ccccc4)c4cc(C)ccc4n3)C(c3ccc(OC)cc3)C2)cc1 (stereo not given)	-3	-8
CC(C)C1CN(C(=O)CCc2cscn2)c2ccccc2N1 (stereo not given)	12	11
CC(C)Cc1nc(CC2C(=O)N(C)C(=O)N2C)n(-c2ccc(F)cc2F)n1 (stereo not given)	21	9
CC(C)(CCl)C(=O)Nc1ccc(C2SCC(=O)N2c2ccc(C(F)(F)F)cc2)cc1 (stereo not given)	-12	3
CCN1C(=O)C2(SCCN2C(=O)C2CC2)c2cc(F)ccc21 (stereo not given)	-2	2
Cc1oc(-c2cc(F)ccc2F)nc1CN1CCN(c2ccccc2)CC1C (stereo not given)	6	11
COCCNC(=O)CSc1nc(N)c(NC(=O)c2ccccc2F)c(=O)[nH]1	-5	-7
Cc1ccc(S(=O)(=O)N2CCN(C(=O)c3cc4c(C)nn(CC(C)C)c4s3)CC2)c(C)c1	0	-1
Cc1ccc(C2C3=C(CC(C)(C)CC3=O)N=C3CC(C)(C)CC(=O)C32)o1 (stereo not given)	16	10
CCc1nc(SCC(=O)NCc2sc(C)nc2CC)n[nH]1	5	-8
O=C(NCC1CC1)c1nn(-c2cccc(C(F)(F)F)c2)c(=O)n(Cc2ccccc2F)c1=O	-3	4
Cc1ccc(N2CCC(CO)(Cc3cccc(F)c3)CC2)nn1	-1	9

# As entered above.
# Result for COc1ccc(C2=NN(c3nc(-c4ccccc4)c4cc(C)ccc4n3)C(c3ccc(OC)cc3)C2)cc1 (stereo not given) under NPYLR7 ag: -3
# Result for CC(C)(CCl)C(=O)Nc1ccc(C2SCC(=O)N2c2ccc(C(F)(F)F)cc2)cc1 (stereo not given) under NPYLR7 ag: -12
# Result for COc1cccc(C(=O)NC(C)C2c3cc(OC)c(OC)cc3CCN2Cc2ccc(F)cc2)c1 (stereo not given) under NPYLR7 ag: 0
# Result for Cc1ccc(N2CCC(CO)(Cc3cccc(F)c3)CC2)nn1 under NPYLR7 ag max-min: 9

# Later entries:
smiles	NPYLR7 ag	NPYLR7 ag max-min
Cc1csc(-c2ccc(C(=O)N(C)C3CCN(C(C)C)CC3)cc2)n1	-6	-7
COc1cc2c(cc1OC)C1CN(C(=O)Nc3ccccc3OC(F)F)CC(=O)N1CC2 (stereo not given)	-1	4
C=C1C(C)(C)[C@H]2CC[C@]1(C(=O)N1CCC(n3cc(CCCC)nn3)CC1)C2	2	-7
O=C(CC1=C(c2cccs2)CCC1=O)Nc1cnc2n1CCCC2	6	1
CNC(=O)Nc1ccc(NC(=O)c2occc2Br)cc1	-7	-7
O=C(CSc1nnnn1-c1ccccc1)Nc1cc(Cl)ccc1F	16	5
CC1C(=O)N(c2cccc(Cl)c2)CCN1C(=O)C1CCC1 (stereo not given)	-3	3
O=C(/C=C/c1ccco1)N1CCC(n2c(Cc3ccccc3)nc3ccccc32)CC1	-1	-1
CC(=O)c1cc(CN2CCC(CO)(CCCc3ccccc3)CC2)cs1	13	16
O=C(Cc1ccc(Cl)cc1)NC1(C(F)(F)F)CCC2(CC1)OCCO2	0	-1
N#CCOc1ccc(CSc2nnc(N3CCCC3)s2)cc1	4	4
COc1c(C=O)c(=O)[nH]c2c(OC)cccc12	2	0
O=C(O)C1CC2CCCCC2N1S(=O)(=O)c1ccccc1F (stereo not given)	-1&-3	0&-4
O=C1OC(c2ccccc2)=N/C1=C/c1ccc(S(=O)(=O)C(F)F)cc1	-6	-17

# Not all compounds are listed; rates above refer to the full screens.
